Vaccinia pol inh: vaccinia E9 polymerase processive synthesis inhibitors, primary screen, biochemical, absorbance. in vitro processive DNA synthesis, absorbance read-out; hits give low values; some inactives read as strong as hits. normalized absorbance, % (no concentration beside the values). actives 0.94% (n = 46,000);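 active = replicate mean up to 90% and picked by the depositor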;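 note: 100% = median of the test wells of a plate; 100 nL library stock went into each well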
* marks the source's active call; other numbers are inactive results; & = joins results of further samples.

SMILES | Vaccinia pol inh
NC(C(=O)O)c1ccc(CCCC(=O)O)s1 (stereo not drawn) | 99.3
CCOC(=O)c1cc2c(=O)n3cc(C)ccc3nc2n(Cc2ccco2)c1=N | 100.8
COc1ccc2ccccc2c1C=Nc1ccccc1C#N | 98.7
N#CCCN(Cc1cccs1)C(=O)Nc1ccc2c(c1)CCO2 | 101.8
Cc1oc(-c2ccccc2)nc1CSc1nncn2c1cc1occc12 | 85.0
O=C(Cn1c(N2CCCCC2)nc2ccccc21)c1ccccc1 | 102.2
O=C1OC2(CCCC2)OC(=O)C1=Cc1c[nH]c2ccccc12 | 99.8
c1ccc(-c2nc(Sc3ncnc4c3cnn4-c3ccccc3)n[nH]2)cc1 | 99.6
Cc1cc(NS(=O)(=O)c2ccc3[nH]c(=O)ccc3c2)ccc1Br | 109.1
COC(=O)c1c(C)nn(C(=O)c2cccs2)c1-c1snnc1C | 100.5
O=C(CSc1c2c(nc3cc(Cl)ccc13)CCCC2)N1CCCCCC1 | 103.0
Cn1nc(C(=O)NCc2ccco2)c2c1-c1ccccc1SC2 | 109.7
CCn1c2ccccc2c2nnc(N3CCC(C(N)=O)CC3)nc21 | 104.0
COCc1nc2ccccc2n1C(C)C | 108.9
CC(=O)Nc1ccc(OC(=O)c2cc3ccccc3oc2=O)cc1 | 101.9
Fc1ccc(-n2nnc3c(SCc4ccc(C(F)(F)F)cc4)ncnc32)cc1 | 94.8
Cc1sc2ncnc(NC3CCN(Cc4ccccc4)CC3)c2c1C | 99.0
O=c1ccc(=O)n(CCO)[nH]1 | 100.6
CCOC(=O)c1ccc(NC(=O)c2ccc(C(C)(C)C)cc2)cc1 | 100.8
CCn1c(/C=C/Nc2ccccc2)[n+](CC)c2ccc(S(=O)(=O)C(F)(F)F)cc21 | 96.8

Molecules from the list above with a CF3 group:
SMILES | Vaccinia pol inh
Fc1ccc(-n2nnc3c(SCc4ccc(C(F)(F)F)cc4)ncnc32)cc1 | 94.8
CCn1c(/C=C/Nc2ccccc2)[n+](CC)c2ccc(S(=O)(=O)C(F)(F)F)cc21 | 96.8

More structures follow:
SMILES | Vaccinia pol inh
CCN1CCc2nc(NC(=O)c3ccccc3)sc2C1 | 93.0
O=C(CCCC(=O)N1CCCc2ccccc21)N1CCCc2ccccc21 | 100.8
COc1nccc(C(F)(F)F)c1C(=O)NC(=O)Nc1c(C)cccc1C | 105.4
O=C(Oc1ccccc1N(C(=O)c1ccccc1)S(=O)(=O)c1ccccc1)c1ccccc1 | 101.1
O=C1NC(=S)N(c2ccc(Br)cc2)C(=O)/C1=C/c1ccsc1 | 100.0
CN(C)CCC(O)(CCc1ccccc1)c1ccccc1 (stereo not drawn) | 91.1
Cc1noc(C)c1CSc1ncnc2sc3c(c12)CCCC3 | 100.6
Cn1c(SCC(=O)c2ccccc2)nnc1C1COc2ccccc2O1 (stereo not drawn) | 99.4
CC(NC(=O)c1ccc(F)cc1)C(c1ccccc1)N1CCN(C)CC1 (stereo not drawn) | 100.7
O=C(COc1cccc2ccccc12)N1CCc2ccccc2C1 | 124.4
Nc1c(C(=O)O)sc2nc(C3CC3)cc(-c3ccc(Cl)cc3)c12 | 89.0
Cc1ccc(C(=O)OCC(=O)N2CCc3ccccc32)c(C)c1 | 106.6
O=C(O)c1ccc(CN2C(=O)c3ccc(C(=O)O)cc3C2=O)cc1 | 100.5
CCOc1ccc(-c2cc(C(F)(F)F)c(C#N)c(SCC)n2)cc1 | 100.3
c1cc2c(cc1-c1cnc3n1CCC3)OCCO2 | 97.1
CNC(=S)NCc1ccco1 | 88.0
CC(C)(c1ccc(OCC2CO2)cc1)c1ccc(OCC2CO2)cc1 (stereo not drawn) | 100.4
CC(=O)NC12CC3CC(CC(CC(=O)O)(C3)C1)C2 | 93.4
CCOC(=O)c1c(C)oc2c1c(C=NCc1ccco1)c(O)c1ccccc12 | 100.0
COc1ccc(C2SCC(=O)N2c2ccc(Br)cc2)cc1 (stereo not drawn) | 101.2
Cc1ccc2nc(-c3ccc(NC4=CC(=O)CCC4)cc3)sc2c1 | 79.5
N[C@@H](CO)CSCc1ccccc1 | 97.2
Cc1ccc(CNC(=O)C2CCN(S(=O)(=O)c3ccc4nc(-c5ccccc5)[nH]c4c3)CC2)cc1 | 102.2
COc1ccccc1CNc1nc2c(-c3cccc(C)c3)nnn2c2ccccc12 | 101.7
NC(=O)c1cc2ccccc2oc1=NCc1ccccc1 | 99.1
Cc1onc(-c2c(Cl)cccc2Cl)c1C(=O)ON1C(=O)CCC1=O | 99.5
CC(CC(=O)N1CCc2ccccc2C1)CC1=NS(=O)(=O)c2ccccc2N1 (stereo not drawn) | 100.5
Cc1ccc(O)c(C2=Nc3ccccc3N=C(c3ccco3)C2)c1 | 99.7
CCN(C(=O)CSc1ncn[nH]1)c1cccc2ccccc12 | 85.7
N#CC1=C(SCc2ccccc2)NC(=O)C(C#N)C12CCCC2 (stereo not drawn) | 99.4
O=C(CC(c1ccccc1)c1ccccc1)Nc1ccc(Cl)cc1 | 93.3
Cc1c(C(=O)Sc2ccccc2)sc2nc(C(F)(F)F)nn12 | 98.2
O=C1CC(c2nc3ccccc3n2C/C=C/c2ccccc2)CN1c1ccc(Cl)cc1 (stereo not drawn) | 109.1
CC(C)(C)C(=O)CSc1nc2ccccc2o1 | 98.2
Cc1ccc(-n2nc(C(=O)NC(C)CCc3ccccc3)c3c4ccccc4n(C)c3c2=O)cc1 (stereo not drawn) | 104.3
O=C(O)CCS(=O)(=O)Cc1ccccc1Cl | 101.2
CC(NC(C(=O)O)c1ccccc1)c1ccccc1 (stereo not drawn) | 99.2
Cc1ccc(CCNC(=O)Cc2noc3ccccc23)cc1 | 97.2
C1=C(c2ccccc2)NN=C(/N=C/c2ccco2)S1 | 99.4
Fc1cccc(-n2ccc(-c3ccccc3)n2)n1 | 91.9
Cc1ccc(N2COc3ccc(Cl)cc3C2)cc1 | 99.7
Cc1cnc(NC(=O)CSc2ccccc2)s1 | 98.0
O=C(CN1C(=O)CC(c2ccccc2)S(=O)(=O)c2ccccc21)NC1CCCCC1 (stereo not drawn) | 102.1
c1ccc(CN2CCN(CC3CCCCC3)CC2)cc1 | 96.0
Cc1noc(CCn2c(=O)[nH]c3ccccc3c2=O)n1 | 105.5
COc1cc(OC)cc(C(C)(C)OC(=O)NN)c1 | 97.2
CC(C)c1nnc(NC(=O)c2cccs2)s1 | 102.4
Cc1ccc(C(=O)OCC(=O)C(C)(C)C)cc1 | 94.8
c1ccc(-c2noc(COc3cccc4ccccc34)n2)cc1 | 100.1
CC(/C=C/c1cccc(Oc2ccc(F)cc2)c1)N(O)C(N)=O (stereo not drawn) | 98.9
CCOC(=O)c1cnn(C(=O)c2ccc(-n3c(C)ccc3C)cc2)c1N | 66.1*
Cc1nn(Cc2ccc(C(=O)Nc3sc4c(c3C(=O)OC(C)C)CCCC4)o2)c(C)c1Cl | 100.1
CN(C)CCOC(=O)c1sc2ccccc2c1Cl | 77.4
CC(=O)Nc1cccc(C(=O)OCC(=O)N2c3ccccc3CC2C)c1 (stereo not drawn) | 104.6
Cc1ncc(CN2CCCCC2)c(N)n1 | 92.3
CC(=O)N[C@@H](CSC/C=C(\C)CCC=C(C)C)C(=O)O | 99.8
COc1ccc(C(=O)Nc2nn3c(CC(C)C)nnc3s2)cc1 | 106.9
Fc1ccc(-n2c(C34CC5CC(CC(C5)C3)C4)n[nH]c2=S)cc1 | 100.4
O=C(O)CCSC1CC(=O)N(c2ccc(F)cc2)C1=O (stereo not drawn) | 100.0
C=CS(=O)(=O)Cc1ccccc1 | 100.8
(listing goes on)
SMILES | Vaccinia pol inh
Nc1nc(-c2ccccc2)c(NC(=O)c2ccccc2Cl)s1 | 107.8
Cc1ccc(OCCn2ncc3ccccc3c2=O)c(C)c1 | 108.1
CC(C)NC[C@H](O)COc1cccc2ccccc12 | 92.9
O=C(NC1CCS(=O)(=O)C1)c1c(Cl)cccc1Cl (stereo not drawn) | 108.1
N#Cc1nc2c(-c3nc4ccccc4s3)c(N)n(-c3ccc(Cl)cc3)c2nc1C#N | 97.7
CCN1C(=O)/C(=C\C(C)=C\c2ccccc2)SC1=S | 100.2
Cn1nc(C(C)(C)C)c(NC(=O)c2ccc(F)cc2)c1C(C)(C)C | 109.2
CC(=O)NC(c1ccccc1F)C1CCCCC1=O (stereo not drawn) | 99.5
O=C(CN1CCCc2ccccc21)N1CCCc2ccccc21 | 95.1
C=CCn1c(/N=C/c2ccc(Cl)cc2)nc2ccccc21 | 99.6
Cc1cc(=O)n(C(N)=S)[nH]1 | 96.2
Cc1ccc(C2=NCN(c3ccc(C(=O)O)cc3)C(=S)N2)cc1 | 99.5
CCC(=O)/C=C(\O)c1ccc(Br)cc1 | 102.7
COc1cc(OC)c2c3c(c(=O)oc2c1)CCC3 | 98.2
Cc1nc(/C=C(/N)C#N)cn1-c1ccccc1 | 100.5
O=C(CSC(=S)N1CCOCC1)c1cc(Br)cc(Br)c1O | 97.2
c1ccc2c(c1)NC(c1ccc3c(c1)CCO3)n1cccc1-2 (stereo not drawn) | 80.8
COc1ccc(/C=C2\CCC(C3CCCC3)C2=O)cc1Cn1cccn1 (stereo not drawn) | 98.0
CC(C)COc1ccc(S(=O)(=O)n2cc(F)c(=O)[nH]c2=O)cc1 | 102.9
CC1(C)N=C(C(=O)c2ccccc2)N(O)C1(C)O (stereo not drawn) | 99.9

Reprinted from the part before: three compounds, followed by the next part.
SMILES | Vaccinia pol inh
COc1ccc(/C=C2\CCC(C3CCCC3)C2=O)cc1Cn1cccn1 (stereo not drawn) | 98.0
CC(C)COc1ccc(S(=O)(=O)n2cc(F)c(=O)[nH]c2=O)cc1 | 102.9
CC1(C)N=C(C(=O)c2ccccc2)N(O)C1(C)O (stereo not drawn) | 99.9
CC(=O)N1CCOc2cc(S(=O)(=O)N3CCCCC3C)ccc21 (stereo not drawn) | 101.7
CN1CCN(CCCN2c3ccccc3Sc3ccc(C(F)(F)F)cc32)CC1 | 98.5&100.0
O=C(CSc1nc2ccccc2c(=O)n1-c1ccccc1F)NC1CC1 | 96.0
CCN(CC)c1ccc(NC(=O)Nc2ccc(OCc3ccccc3)cc2)cc1 | 98.1
CCCN(Cc1cccs1)C(=O)Nc1ccccc1CC | 109.1
CNC(=O)C1CCC(CNS(=O)(=O)c2ccc(C)cc2)CC1 (stereo not drawn) | 110.8
OCCSc1ncnc2sc3c(c12)CCC3 | 92.4
O=S(=O)(Cc1nc2ccccc2[nH]1)c1ccccc1 | 102.7
CN(C1=CC(=O)c2ccccc2C1=O)c1ccccc1 | 99.3
CCOC(=O)c1c(NC(=O)C(C)Sc2ncccn2)sc2c1CCC2 (stereo not drawn) | 91.9
CN(C)C(=O)c1ccc(Oc2ccc(C(=O)N(C)C)cc2)cc1 | 100.4
C=Cn1cnc2c1c(=O)n(C)c(=O)n2C | 99.8
Fc1ccc(C2=Nn3c(Cc4ccccc4)nnc3SC2)cc1 | 108.0
COc1ccc(Nc2cc(C)c(C#N)c3nc4ccccc4n23)cc1 | 99.8
O=C(/C=C/c1cccs1)Nc1ccccc1-c1nc2ccccc2o1 | 100.6
CCNc1ccc(S(=O)(=O)C(F)(F)F)cc1NC(=O)C12CCC(CC1)C2 | 100.0
COc1ccc(NC(=O)CN2C(=O)C3C4C=CC(C4)C3C2=O)cc1 (stereo not drawn) | 105.6
CC(C)NC(=O)/C(=N\O)c1ccccc1 | 100.4
CCN1C(=O)/C(=C\c2ccc(OC)cc2)C(C(=O)OC)=C1C | 100.5
CN(Cc1ccccc1)c1nc2c(S(=O)(=O)c3ccccc3)nnn2c2ccccc12 | 100.0

Given in CSV form: part of the list above
SMILES,Vaccinia pol inh
CC(=O)N1CCOc2cc(S(=O)(=O)N3CCCCC3C)ccc21 (stereo not drawn),101.7
OCCSc1ncnc2sc3c(c12)CCC3,92.4
COc1ccc(NC(=O)CN2C(=O)C3C4C=CC(C4)C3C2=O)cc1 (stereo not drawn),105.6
COc1ccc(Nc2cc(C)c(C#N)c3nc4ccccc4n23)cc1,99.8
CNC(=O)C1CCC(CNS(=O)(=O)c2ccc(C)cc2)CC1 (stereo not drawn),110.8
O=C(CSc1nc2ccccc2c(=O)n1-c1ccccc1F)NC1CC1,96.0

Later entries.
SMILES | Vaccinia pol inh
CC(C)COC(=O)C(C)Nc1n[nH]c(=S)[nH]c1=O (stereo not drawn) | 100.5
COc1ccc(-c2c(C)oc3cc(OC)ccc23)cc1 | 98.7
O=C1CC2C(=O)NCCN2C(=NC(=O)c2ccccc2)N1 (stereo not drawn) | 102.7
CC(C)C(=O)Nc1nc2ccc(Cl)cc2s1 | 94.2
COc1ccc(C(CC(=O)c2ccccc2)Sc2ccccc2N)cc1 (stereo not drawn) | 101.9
COc1ccccc1NC(=O)Cn1c(=O)n(Cc2ccccn2)c(=O)c2sc3ccccc3c21 | 102.4
C[C@@H]1CC2C3CCC4=CC(=O)C=CC4(C)[C@@]3(F)[C@@H](O)CC2(C)[C@@]1(O)C(=O)CO (stereo partly drawn) | 100.8
Fc1ccc(Nc2nc(Nc3ccc(F)cc3)nc(N3CCCCC3)n2)cc1 | 100.0
CO[C@H]1/C=C/O[C@@]2(C)Oc3c(C)c(O)c4c(O)c(c(C=NN5CCN(C)CC5)c(O)c4c3C2=O)NC(=O)/C(C)=C\C=C\C(C)[C@H](O)[C@@H](C)[C@@H](O)[C@@H](C)[C@@H](OC(C)=O)[C@@H]1C (stereo partly drawn) | 100.5
CCCCC(=O)O[C@H]1CCC2C3CCc4cc(O)ccc4C3CC[C@@]21C (stereo partly drawn) | 100.3
CC[N+](C)(CC)C/C=C1/COCO1 | 97.6
CN(C)/C=N/S(=O)(=O)c1ccc(-n2nc(C(F)(F)F)cc2-c2cccs2)cc1 | 99.3
CC(C)NS(=O)(=O)Cc1ccccc1 | 99.1
COC(=O)/C=C1\NC2CCCCC2NC1=O (stereo not drawn) | 101.2
COc1cccc2cc(C(=O)N3CCCc4ccccc43)c(=O)oc12 | 98.4
COc1cccc(NC(=O)COc2ccc(N3CC(C(=O)NCC(C)C)CC3=O)cc2)c1 (stereo not drawn) | 100.5
O=C(COc1ccccc1)Nc1c(-c2ccc(F)cc2)nc2ccccn12 | 102.2
O=C1NN(c2ccccc2)C(=O)/C1=C/c1coc2ccccc2c1=O | 93.9
CSCCC1C(=O)N(N)C2(C)CC(C)(C)NC(=S)N12 (stereo not drawn) | 99.6

High-throughput results deposited in PubChem by ICCB-Longwood Screening Facility, Harvard Medical School.

Some of the compounds tested. The share of hits here may be higher or lower than overall.
